Bioassay records deposited in PubChem BioAssay by National Center for Advancing Translational Sciences (NCATS).
Vaccinia Venus: qHTS for Stage-Specific Inhibitors of Vaccinia Orthopoxvirus: Venus Reporter Primary qHTS; AID 720580, 2013; Potency, µM (series often up to 36.5 µM), for the others: at the top dose activity change, negative = inhibition, actives largely listed as inhibitors; actives 0.46% (n = 330,000); Vaccinia virus Venus reporter expression, fluorescence; active means well fitted inhibition curve with a large enough effect; inconclusive means small, poorly fitted or top-dose-only effect; inactive means no such curve, though single readings can be large or run the other way; tested in A549 cells; also: nearly all actives have a fitted effect of over 30% in size; inactives centre near -10
Vaccinia mCherry: qHTS for Stage-Specific Inhibitors of Vaccinia Orthopoxvirus: mCherry Reporter Primary qHTS. Vaccinia virus mCherry reporter infection, fluorescence; about a quarter of the inactives have no number. Potency, µM (top dose mostly 36.5 µM), inactives show top-dose activity change, negative = inhibition, hits mostly inhibitors. actives 0.63% (n = 310,000). AID 720579, 2013; active = well fitted inhibition curve with a large enough effect; inconclusive = small, poorly fitted or top-dose-only effect; inactive = no such curve, though single readings can be large or run the other way; tested in A549 cells; also: nearly all actives have a fitted effect of over 35% in size; inactives centre near -10
An asterisk follows results filed as active; i = inactive; ? = inconclusive; . = no result given; [ ] = another dose, or the depositor's remark. % is scaled to controls: 0 for no effect and ±100 for the full control effect; potency is read from the fitted curve at half-maximal effect.

entry	compound	Vaccinia Venus	Vaccinia mCherry
1	Cc1nc(C(=O)NC2CCCCC2)sc1C1(C)CC(c2cccc([N+](=O)[O-])c2)=NO1 (centres undefined)	-4%	i
2	O=C(NCc1ccco1)C1CCC(N2C(=O)C3C4CCC(C4)C3C2=O)CC1 (centres undefined)	-5%	-15%
3	COc1nnc(-c2ccc(N3CCCCC3)c(NC(=O)c3ccccc3)c2)c2ccccc12	?	?
4	O=c1c2ccccc2ncn1-c1ccc([N+](=O)[O-])cc1Cl	-20%	-30%
5	O=C(NN=Cc1cc(Cl)ccc1[N+](=O)[O-])c1ccco1	-1%	i
6	CCOC(=O)N1CCN(Cc2nc3cc(NC(=O)c4ccccc4[N+](=O)[O-])ccc3n2C(C)C)CC1	-18%	-24%
7	COC(=O)c1ccc(NC(=O)CC2C(=O)N(c3ccc(C)cc3)C(=O)N2Cc2ccc(OC)cc2)cc1 (centres undefined)	-3%	-14%
8	Cc1cc(NS(=O)(=O)c2ccc(NC(=O)/C=C/c3cccc(Cl)c3)cc2)no1	-1%	-16%
9	COCCn1c(SCC(=O)Nc2ccc(NC(C)=O)cc2)nc2ccccc2c1=O	-14%	-15%
10	COc1ccc(NC(=O)N2CCN(C(=O)c3ccco3)CC2)c(OC)c1	-5%	i

Of the compounds above, these have an aryl methoxy group.
entry	compound	Vaccinia Venus	Vaccinia mCherry
3	COc1nnc(-c2ccc(N3CCCCC3)c(NC(=O)c3ccccc3)c2)c2ccccc12	?	?
7	COC(=O)c1ccc(NC(=O)CC2C(=O)N(c3ccc(C)cc3)C(=O)N2Cc2ccc(OC)cc2)cc1 (centres undefined)	-3%	-14%
10	COc1ccc(NC(=O)N2CCN(C(=O)c3ccco3)CC2)c(OC)c1	-5%	i

Next section
entry	compound	Vaccinia Venus	Vaccinia mCherry
11	C=C(C)C1CC=C(C)/C(=N/Nc2ccccc2[N+](=O)[O-])C1 (centres undefined)	0%	-12%
12	COc1ccccc1NC(=O)Cn1c(=O)n(-c2cccc(Cl)c2)c(=O)c2c1c1cc(C)ccc1n2C	-6%	-3%
13	Cn1c(=O)c2c(nc3n2CC(O)CN3c2ccc(O)cc2)n(C)c1=O (centres undefined)	-5%	-5%
14	CC(=O)N1CCN(c2ccc(NC(=O)c3ccc(Cl)c(Cl)c3)cc2)CC1	-8%	-8%
15	Cc1cc(-c2n[nH]c(=S)n2-c2ccc(C)c(C)c2)no1	-4%	-9%
16	Cc1c(-n2c(SCC(=O)NC(C)C)nc3ccccc3c2=O)c(=O)n(-c2ccccc2)n1C	-18%	i
17	NC1(C#Cc2ccc3c(=O)c4ccccc4sc3c2)CCCCC1	-30%	-22%
18	CCCCNS(=O)(=O)c1cccc(NC(=O)[C@@H]2O[C@H](CO)[C@@H](O)[C@H]2O)c1	7%	46%[activator]
19	CNc1cncc(-c2ccc(OC)cc2)n1	4%	?
20	O=[N+]([O-])c1cc(-c2nc(-c3ccccc3)no2)ccc1N1CCCC1	?	-25%

In a second layout: two of the compounds above.
17. NC1(C#Cc2ccc3c(=O)c4ccccc4sc3c2)CCCCC1
  Vaccinia Venus = -30%
  Vaccinia mCherry = -22%
18. CCCCNS(=O)(=O)c1cccc(NC(=O)[C@@H]2O[C@H](CO)[C@@H](O)[C@H]2O)c1
  Vaccinia Venus = 7%
  Vaccinia mCherry = 46%[activator]

Next part.
entry	compound	Vaccinia Venus	Vaccinia mCherry
21	O=C(CSc1nc2ccccc2c(=O)[nH]1)N1CCN(c2ccccc2)CC1	-4%	-13%
22	COC(=O)C(C)Sc1nc2c(cnn2-c2ccc(C)cc2)c(=O)[nH]1 (centres undefined)	5%	4%
23	COc1ccc(CCNC(=O)c2cc(-c3ccc4c(c3)OCO4)on2)cc1OC	-7%	-7%
24	CC1=NN(C(=O)COc2ccccc2)C(O)(c2ccccc2)C1 (centres undefined)	-12%	i
25	N#CC(=C(O)c1ccc(S(=O)(=O)N(CCCl)CCCl)cc1)c1nc2ccccc2[nH]1	-4%	-2%
26	CCC(C(=O)Nc1cccc(C(=O)O)c1C)c1ccccc1 (centres undefined)	-11%	-5%
27	COc1ccc(CCN(C(=O)C(F)(F)F)C(C(=O)NC2CCCCC2)c2ccc(C)s2)cc1OC (centres undefined)	-5%	-8%
28	CCCCCCOc1ccc(C2C(=O)N(C3CCCCC3)CC(=O)N2CCCC)cc1 (centres undefined)	-14%	-7%
29	COc1ccc(C2CC(=O)c3cc(-c4nc(-c5ccc(C)cc5)cs4)c(=O)[nH]c3C2)cc1 (centres undefined)	81%[activator]	-3%
30	Cc1cc(C)c(/C=N/NC(=O)c2nnn(-c3nonc3N)c2COc2ccc(F)cc2)c(C)c1	-11%	-21%
31	Cc1cc(/C=N/NC(=O)c2ccsc2)c(C)n1-c1cnccn1	-14%	-5%
32	O=C(Nc1nnc(-c2ccccc2Cl)o1)c1ccc(S(=O)(=O)N2CCCCCC2)cc1	-28%	-18%
33	N#CC1=C(N)C2=CCCC[C@H]2[C@H](c2cccc(F)c2)C1(C#N)C#N	-16%	-29%
34	Cc1cc(C)cc(N2C(=O)CS(=O)(=O)C23C(=O)N(C)c2ccccc23)c1 (centres undefined)	5%	4%
35	NC(=O)c1ncn([C@@H]2O[C@H](CNC(=O)[C@H](N)CSCc3ccccc3)[C@@H](O)[C@H]2O)n1	3%	-4%
36	O=C(NCC1CCCO1)c1cccc(S(=O)(=O)Nc2ccc(SC(F)F)cc2)c1 (centres undefined)	-12%	-4%
37	CCOC(=O)C1CCN(S(=O)(=O)c2ccc3c4c(cccc24)C(=O)N3)CC1	-8%	24%
38	C[C@H](NC(=O)c1nc[nH]c1C(=O)NC1CCN(C(=O)OC(C)(C)C)CC1)C(=O)OC(C)(C)C	-28%	?
39	O=C(CSc1nnc(CNC(=O)c2cccs2)o1)Nc1ccc(F)cc1F	-6%	i
40	COc1cc(/C=N\NC(=O)c2ccc(-c3ccccc3)cc2)ccc1OCC(N)=O	-29%	-10%
41	CNC(C)C#Cc1ccc2oc3cccc(OC)c3c(=O)c2c1 (centres undefined)	-21%	i
42	COc1cc(C)ccc1OCCSc1nc2ccc(NC(=O)c3cccs3)cc2s1	-14%	i
43	COc1ccc(OC)c(S(=O)(=O)NC(=O)C2(C)CCN2C(=O)C2(c3ccc(Cl)cc3)CC2)c1 (centres undefined)	14%	28%
44	CN1C(=O)CC(N2CCN(CC(=O)N3CCCC3)CC2)C1=O (centres undefined)	-7%	.
45	CC(C)(C)OC(=O)N1CCC(Cc2cc(-c3cccnc3)no2)(C(=O)O)CC1	-7%	-12%
46	CC(=O)Nc1ccc(NC(=O)C2CCCN(S(=O)(=O)c3ccc(Cl)cc3)C2)cc1 (centres undefined)	3%	3%
47	CC(NC(=O)CSc1ncccn1)c1ccccc1 (centres undefined)	-4%	i
48	CCC(=O)N1CC2(CC(c3cccc(NC(=O)CC(c4ccccc4)c4ccccc4)c3)=NO2)C[C@H]1C(N)=O (some centres undefined)	2%	-3%
49	Cc1ccc(S(=O)(=O)NNC(=O)c2cc(C)cs2)cc1	-7%	-11%
50	CCC(C)n1c(NC(=O)c2ccccc2)c(C#N)c2nc3ccccc3nc21 (centres undefined)	?	.
51	O=C(CCCN1C(=O)/C(=C\c2ccco2)SC1=S)Nc1ccc2ccccc2c1	29%	?
52	O=C(/C=C/c1ccccc1[N+](=O)[O-])NCCCn1ccnc1	-3%	-12%
53	Cc1ccc(Cl)cc1-c1cc(C(=O)NCc2cccc(Cl)c2)[nH]n1	-6%	21%
54	O=S(=O)(NCC1CCCO1)c1ccc2ccccc2c1 (centres undefined)	-10%	i
55	C=CCn1c(=S)[nH]c2ccccc2c1=O	-5%	i
56	Cc1nc2ccc(C(=O)NCCCN3CCCC3=O)cn2c1N(C)C(=O)CCc1ccccc1	-2%	4%
57	O=C1/C(=C\c2ccccc2)C[C@@]2(O)[C@H]3Cc4ccc(O)c5c4[C@@]2(CCN3CC2CC2)[C@H]1O5	?	?
58	COc1ccccc1C(=O)N1C(CC(=O)Nc2cc(Cl)ccc2C)C(=O)NC2CCCCC21 (centres undefined)	-16%	-23%
59	CCC(C(=O)NCc1ccc(F)cc1)N(Cc1ccco1)C(=O)c1snc(C(N)=O)c1N (centres undefined)	-2%	-12%
60	COCCn1c(SCC(=O)Nc2cc(C)on2)nc2c(c1=O)SC(C)C2 (centres undefined)	-7%	-19%

Compound profiles, as listed above. Screens in order: Vaccinia Venus, Vaccinia mCherry
Entry for COCCn1c(SCC(=O)Nc2cc(C)on2)nc2c(c1=O)SC(C)C2 (centres undefined) → -7%, -19%
Entry for O=C(/C=C/c1ccccc1[N+](=O)[O-])NCCCn1ccnc1 → -3%, -12%
Entry for Cc1nc2ccc(C(=O)NCCCN3CCCC3=O)cn2c1N(C)C(=O)CCc1ccccc1 → -2%, 4%
Entry for CCC(C(=O)NCc1ccc(F)cc1)N(Cc1ccco1)C(=O)c1snc(C(N)=O)c1N (centres undefined) → -2%, -12%

New compounds follow:
entry	compound	Vaccinia Venus	Vaccinia mCherry
61	O=C(CCC(=O)NC1CCCCCCC1)Nc1nnc(C(F)(F)F)s1	-19%	-7%
62	Nc1ccc(S(=O)(=O)c2ccc(N3CCOCC3)c(N)c2)cc1	-15%	i
63	Cc1cccc(C)c1NC(=O)Cn1c(=O)n(Cc2ccc(C(=O)NCc3ccco3)cc2)c(=O)c2sccc21	8%	-9%
64	Cc1cc(C)cc(NC(=O)CSc2nc(CSc3ccc(Cl)cc3)cc(=O)[nH]2)c1	7%	-3%
65	Cc1ccccc1N=C1N=C(N)c2ccccc21	-25%	-13%
66	CCSc1nccc(-c2nn(-c3ccc(C)cc3)ccc2=O)n1	-28%	?
67	Cc1ccc(S(=O)(=O)N2[C@@H](c3ccc(Br)cc3)C(C(=O)O)=CC[C@H]2c2ccc(C(C)C)cc2)cc1	-13%	i
68	CC(C(=O)Nc1cccc(S(=O)(=O)N2CCOCC2)c1)N1CCN(C)CC1 (centres undefined)	1%	-3%
69	N=c1sccn1CC(=O)Nc1cc(Cl)ccc1[N+](=O)[O-]	-8%	-8%
70	O=S(=O)(NCCC1CC1(Cl)Cl)c1ccccc1 (centres undefined)	-4%	-8%
71	Cc1cccc(CSc2ccc3nnc(CCNS(=O)(=O)c4ccccc4)n3n2)c1	-16%	-14%
72	CCOc1ccc(N(CCCCO)C(=S)NC(=O)c2ccc(C)c(Br)c2)cc1	-16%	-13%
73	COc1cc(/C=C/C(=O)OCC(=O)NCCN2C(=O)CSC2=O)ccc1OC(F)F	-2%	-2%
74	O=C(CCCSc1nc2ccccc2[nH]1)NCc1ccccc1Cl	-15%	-2%
75	O=C(Nc1ccon1)c1cccn(Cc2cccc([N+](=O)[O-])c2)c1=O	-19%	-28%
76	O=C(NCCc1csc(-c2cccnc2)n1)c1ccc(Br)o1	-30%	-2%
77	CN1CCN(S(=O)(=O)c2ccc(NC(=O)Nc3cccc(Cl)c3)cc2)CC1	?	.
78	Cc1cccc(SC2CCN(Cc3nc(CC4CC4)no3)CC2)c1	1%	-2%
79	CCCCOc1ccc(C(=O)NNC(=O)C2C3CCC(C3)C2C(=O)O)cc1 (centres undefined)	-7%	0%
80	CCOc1ccccc1NC(=O)c1ccccc1-c1ccccc1	-11%	-3%

By substructure: the compounds so far containing a cyano group (3)
entry	compound	Vaccinia Venus	Vaccinia mCherry
25	N#CC(=C(O)c1ccc(S(=O)(=O)N(CCCl)CCCl)cc1)c1nc2ccccc2[nH]1	-4%	-2%
33	N#CC1=C(N)C2=CCCC[C@H]2[C@H](c2cccc(F)c2)C1(C#N)C#N	-16%	-29%
50	CCC(C)n1c(NC(=O)c2ccccc2)c(C#N)c2nc3ccccc3nc21 (centres undefined)	?	.

(cont.)
entry	compound	Vaccinia Venus	Vaccinia mCherry
81	CCOc1ccc(NC(=O)C2Cc3ccccc3N2C(=O)c2ccccc2)cc1 (centres undefined)	-2%	-11%
82	Cc1noc(C)c1-c1ccc(C(=O)NCC2CC2)c2occc12	-1%	19%
83	O=C1OC(C(=O)Nc2cc(C(F)(F)F)ccc2Cl)Cc2ccccc21 (centres undefined)	-10%	-7%
84	O=C(/C=C/c1cccs1)Nc1scc(-c2ccccc2)c1C(=O)O	34%[activator]	-11%
85	Cn1nnnc1SCCNCc1ccccc1OCc1ccc(F)cc1	-10%	-26%
86	COc1ccc(CCNC(=O)C(C(=O)c2ccccc2)n2ccccc2=O)cc1OC (centres undefined)	-8%	-5%
87	CCC1CCCCN1C(=S)NC1CCCCC1 (centres undefined)	-8%	-19%
88	Cc1ccc(S(=O)(=O)NC(CCC(N)=O)C(=O)NCc2ccc3c(c2)OCO3)c(C)c1 (centres undefined)	-9%	-9%
89	O=[N+]([O-])c1cc2c(c(CSc3nnc4ccccn34)c1)OCOC2	-3%	i
90	COc1cc(CCC(=O)NCc2ccc3c(c2)OCO3)cc(OC)c1OC	-9%	i
91	O=C(CCS(=O)(=O)c1cc(Br)cc2c1N(C(=O)C1CC1)CC2)Nc1ccc(F)cc1	-7%	0%
92	CCc1nc2ccc(C(=O)NCCc3ccccn3)cn2c1N(CCC(C)C)CCN(C)C	11%	3%
93	CC1CCCCC1NC(=O)Cn1cccc1C(=O)c1ccccc1 (centres undefined)	-5%	-28%
94	Cc1ccc2c(c1)c(C1=NC(=S)NC1=O)c(O)n2C	-11%	-8%
95	O=C(NCc1ccccc1)C1CCCN(S(=O)(=O)c2ccc(F)cc2)C1 (centres undefined)	-13%	i
96	CCN(C(=O)COC(=O)c1cn(-c2ccccc2)nc1-c1ccccc1)C1CCS(=O)(=O)C1 (centres undefined)	-2%	-14%
97	CCc1nccn1Cc1cc(C=O)ccc1OC	0%	-8%

The order is random (roughly 0.82% active in at least one column).
